Screening results (PubChem BioAssay)
EPAC1 agonist = Validation qHTS for agonist of cAMP-regulated guanine nucleotide exchange factor 3 (EPAC1). AID 1645883, 2021. Rap guanine nucleotide exchange factor 3 (Homo sapiens), O95398. Potency, µM, inactives show max response, positive = active, usual class: activators. EPAC1 Rap1b BODIPY-GDP exchange, fluorescence. 1% of 16,000 active; active = well fitted activation curve with a large enough effect; inconclusive = small, poorly fitted or top-dose-only effect; inactive = no such curve, though single readings can be large or run the other way;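 also: nearly all actives have a fitted effect of over 70% in size; series mostly up to about 76 or 150 µM; scaled to a cAMP control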
Target sequence (O95398 whole entry, looked up): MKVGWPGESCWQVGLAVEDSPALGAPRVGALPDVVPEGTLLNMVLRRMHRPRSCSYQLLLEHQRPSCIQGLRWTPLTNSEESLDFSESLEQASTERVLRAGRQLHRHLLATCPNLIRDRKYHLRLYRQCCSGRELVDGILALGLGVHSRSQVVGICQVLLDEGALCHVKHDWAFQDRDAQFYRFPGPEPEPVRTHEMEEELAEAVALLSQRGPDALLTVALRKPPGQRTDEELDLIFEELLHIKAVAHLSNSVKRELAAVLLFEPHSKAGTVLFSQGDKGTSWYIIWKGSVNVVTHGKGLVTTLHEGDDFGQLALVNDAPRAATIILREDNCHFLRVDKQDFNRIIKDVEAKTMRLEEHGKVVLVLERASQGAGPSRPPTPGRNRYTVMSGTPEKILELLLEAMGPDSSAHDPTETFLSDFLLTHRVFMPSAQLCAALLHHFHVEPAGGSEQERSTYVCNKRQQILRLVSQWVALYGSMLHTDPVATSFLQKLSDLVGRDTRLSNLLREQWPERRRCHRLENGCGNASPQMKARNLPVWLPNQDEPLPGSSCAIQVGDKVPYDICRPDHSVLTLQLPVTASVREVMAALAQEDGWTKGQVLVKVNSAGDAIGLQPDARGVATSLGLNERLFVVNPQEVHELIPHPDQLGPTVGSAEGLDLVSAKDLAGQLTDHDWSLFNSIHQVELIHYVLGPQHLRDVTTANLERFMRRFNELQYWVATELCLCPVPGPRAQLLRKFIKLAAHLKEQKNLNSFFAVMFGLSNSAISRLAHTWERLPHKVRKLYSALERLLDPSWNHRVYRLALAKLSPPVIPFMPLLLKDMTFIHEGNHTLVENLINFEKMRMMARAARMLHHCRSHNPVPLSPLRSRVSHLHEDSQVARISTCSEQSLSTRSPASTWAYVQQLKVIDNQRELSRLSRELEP
* hit, by the source's call; ? = inconclusive; & = joins results of further samples; [ ] = remark or other dose. % is scaled to controls: 0 for no effect and ±100 for the full control effect; potency is read from the fitted curve at half-maximal effect. The list is partial (hit frequency here may not be typical).

SMILES | EPAC1 agonist
COc1ccc(CNc2ncncc2-c2ccc3c(c2)OCO3)c(OC)c1 | 22.4%
NC(=O)c1ccccc1-c1nc(-n2ccnc2)c2ccccc2n1 | -6.6%
Cc1cnc(CNc2ccnc(-c3c(C)noc3C)n2)cn1 | 22.2%
O=C(c1cccc(F)c1)N1CCC2(CCN(Cc3cc(C(F)(F)F)cc(C(F)(F)F)c3)CC2)CC1 | -69.8%[inhibitor]
Cc1ccc(CNc2nc(CN3CCNC(=O)C3)nc3ccccc23)o1 | 25.2%
CN(Cc1ccco1)c1ncncc1-c1ccoc1 | 15.3%
CC(C)CN(C[C@@H](O)[C@H](Cc1ccccc1)NC(=O)O[C@@H]1CCOC1)S(=O)(=O)c1ccc(N)cc1 | -13.1%
COC(=O)[C@@H]1CCCN1Cc1ccc2c(c1)CN(Cc1cc(OC)c3c(c1)OCO3)CCO2 | -0.9%
Cc1cnc(CNc2ncnc3ccc(-c4ccc(N(C)C)cc4)cc23)cn1 | -19.2%
COc1ccccc1-c1cncnc1NCc1cccnc1 | ?
COCCNc1nc(-c2ccc(N(C)C)cc2)nc2ccccc12 | 5.7%
N#CCCn1c(=O)c(-c2ccc(Cl)cc2)nc2cnc(OCc3ccccc3)nc21 | -55.3%[inhibitor]
O=C(NC1CCN(Cc2ccccc2)C1)c1cnn(-c2ncc3c(n2)-c2ccccc2CC3)c1C1CC1 (stereo not drawn) | 4.5%
COc1cc(N)c(Cl)cc1C(=O)OCCCN1CCCCC1 | -4.9%
CC1(C)C=CC(=O)[C@]2(C)C1CC(=O)[C@]1(C)C2CC[C@@]2(C)C(c3ccoc3)OC(=O)C3OC321 (stereo partly drawn) | ?
CCCCCCCCCCOc1cc2c(=O)c(C(=O)OCC)c[nH]c2cc1OCC | 0.4%
CCOC(=O)CCCCCCCCCCCCC1C=CCC1 (stereo not drawn) | 18.4%
COc1ccc(C(=O)N2CCC3(CC2)CCN(c2ccccc2)CC3)cc1 | -55.4%[inhibitor]
CN(C)c1nc2cc3c(cc2cc1CN(CC1CCCO1)C(=O)c1cccc(F)c1)OCO3 (stereo not drawn) | 1.9%
CNCCC(Oc1ccc(C(F)(F)F)cc1)c1ccccc1 (stereo not drawn) | 1.8%&-0.3%&-45.7%
COc1cc(-c2noc(C)c2C(=O)NCCc2c[nH]c3ccccc23)cc(OC)c1OC | 24.5%
O=C(c1cccc(F)c1)N1CCC2(CC1)CCN(c1cccc(-c3ccccc3)c1)CC2 | -6.2%
CC(=O)CC(c1ccccc1)c1c(O)c2ccccc2oc1=O (stereo not drawn) | 23.9%&-4.6%
Cc1nc2cc(NC(=O)C3CC34CCN(Cc3ccc(O)c(Cl)c3)CC4)ccc2s1 (stereo not drawn) | -3.6%
O=C(O)C1CCNCC1 | -9.2%

Another view of 2 compounds above.
mol	EPAC1 agonist
COc1ccccc1-c1cncnc1NCc1cccnc1	?
O=C(c1cccc(F)c1)N1CCC2(CCN(Cc3cc(C(F)(F)F)cc(C(F)(F)F)c3)CC2)CC1	-69.8%[inhibitor]

Continuation:
SMILES | EPAC1 agonist
Cc1nc2cnc(Nc3ccccc3)nc2n(C[C@H]2CCCO2)c1=O | -23.3%
N#CCCN1CCN(Cc2ccccc2)CCC1=O | 25.8%
COC(=O)C1=C(C)NC(C)=C(C(=O)OCC(C)=O)C1c1ccccc1[N+](=O)[O-] (stereo not drawn) | 8.8%
Nc1ccc(C=O)cc1 | -7.7%
COc1cccc(Cn2c(=O)cnc3cnc(N(C)C)nc32)c1 | -28.6%
Cc1ccccc1CN1[C@H]2CCCC[C@@H]2OCCS1(=O)=O | 9.5%
COc1ccc(-c2nc3cc(C)ccc3cc2CN(C(=O)c2cc(C)nn2C)C2CC2)cc1OC | 17.2%
COc1ccccc1CN1CCC2(CCC(CNC(=O)c3ccccc3N(C)C)O2)CC1 (stereo not drawn) | 1.5%
C=CC[n+]1cccc2cc(Br)ccc21 | -1.9%
Cn1cc(CN2CCC(C3(c4ccccn4)NC(=O)N(CC4CCCO4)C3=O)CC2)c2ccccc21 (stereo not drawn) | 15.1%
CCCCCCCCCCCCCCCCCCc1ccc(C(=O)/C=C\C(=O)O)cc1 | -9.1%
COCCN(C)C(=O)c1cnn(-c2ncc3c(n2)-c2ccccc2CC3)c1C | -13.4%
Cn1c(=O)c(-c2ccc(Cl)cc2)nc2cnc(Nc3ccccc3)nc21 | -46.8%[inhibitor]
CCC1OC(=O)C[C@@H](O)[C@H](C)[C@@H](O[C@@H]2O[C@H](C)C[C@H](N(C)C)[C@H]2O)[C@@H](CC=O)C[C@@H](C)C(=O)/C=C/[C@]2(C)OC2C1C (stereo partly drawn) | -5.6%&-4.1%
COc1ccccc1-c1cc(NCc2cnc(C)cn2)ncn1 | -7.6%
COC(=O)C[C@H]1c2cc(C(F)(F)F)ccc2S(=O)(=O)N1C1CCCCC1 | -22.9%
CCNc1ncc2nc(-c3ccccc3)c(=O)n(-c3ccc(OC)cc3)c2n1 | -66.3%[inhibitor]
CN(Cc1ccccc1)Cc1ccccc1 | -15.2%
CCNc1ncc2nc(-c3cccs3)c(=O)n(-c3ccc(OC)cc3)c2n1 | ?
O=C(O)c1cc(=O)cc(C(=O)O)[nH]1 | -0.3%
NC(Cc1cnc[nH]1)C(=O)Nc1ccc2ccccc2c1 (stereo not drawn) | 24.5%
COc1cc(C(O)CO)ccc1O (stereo not drawn) | 0.2%
N#CCCn1c(=O)c(-c2ccc(F)cc2)nc2cnc(Oc3cccc(Cl)c3)nc21 | 0.1%
CC(C)C1=CC2=CC[C@H]3[C@](C)(C(=O)O)CCC[C@]3(C)C2CC1 (stereo partly drawn) | -17.9%
CN(Cc1cnc2nc(N)nc(N)c2n1)c1ccc(C(=O)NC(CCC(=O)O)C(=O)O)cc1 (stereo not drawn) | 1.8%
SMILES | EPAC1 agonist
CCN1CCCC1CNCc1cc2ccc(SC)cc2nc1-c1cc(OC)ccc1OC (stereo not drawn) | 8.8%
O=C(CN1C(=O)c2ccccc2C1=O)NCC1Cc2cccc(-c3ncccn3)c2O1 (stereo not drawn) | 6.2%
CC(=O)O[C@]1(C(C)=O)CC[C@H]2[C@@H]3C=C(C)C4=CC(=O)CC[C@]4(C)[C@H]3CC[C@@]21C | -33.9%[inhibitor]
O=C(NOCC1CC1)c1ccc(F)c(F)c1Nc1ccc(I)cc1Cl | ?
COC(=O)C1=C(C)NC(COC(N)=O)=C(C(=O)OC(C)C)C1c1cccc(Cl)c1Cl (stereo not drawn) | ?
CC1=C(/C=C/C(C)=C/C=C/C(C)=C/C(=O)Nc2ccc(O)cc2)C(C)(C)CCC1 | -30.0%&-11.8%&-61.1%&-122.0%
COc1c(O)cc(O)cc1O | 7.3%
CC(=O)NCCc1c[nH]c2ccc(O)cc12 | 3.9%&-10.7%&14.9%
CCN(CC)CC#CCOC(=O)C(O)(c1ccccc1)C1CCCCC1 (stereo not drawn) | -0.3%&-27.6%
Cc1nc2cnc(OCc3ccccc3)nc2n(Cc2ccc(F)cc2)c1=O | ?
C[C@@H]1C/C=C/C=C/C=C/C=C/[C@H](O[C@@H]2O[C@H](C)[C@@H](O)[C@H](N)[C@@H]2O)C[C@@H]2O[C@](O)(C[C@@H](O)C[C@H]3O[C@@H]3/C=C/C(=O)O1)C[C@H](O)[C@H]2C(=O)O | -19.4%
CC(C)=CCC/C(C)=C/CC/C(C)=C/CO | -16.0%&-27.8%&-10.7%
Cc1cc(C(=O)NCc2nnc3n2CCN(Cc2ccc(C)c(C)c2)CC3)c(C)o1 | -2.9%
O=C(O)[C@@H]1CN[C@@H](C(=O)O)C1 | -14.3%
CCCCN1C[C@H](Cc2ccccc2)[C@@H](CC(=O)Nc2ccccc2)C1=O | 3.0%
NC(=O)[C@H]1O[C@@H](O)[C@H](O)[C@@H](O)[C@@H]1O | -1.6%
COc1cccc(Cn2c(=O)c(-c3cccs3)nc3cnc(N4CCN(C)CC4)nc32)c1 | 6.4%
CN(C)c1ccc(/C=C/c2sc3ccccc3[n+]2CCCCBr)cc1 | ?
Cn1cc(-c2nc3cnc(N4CCNCC4)nc3n(C)c2=O)c2ccccc21 | -9.5%
CCC1CN(Cc2ccc(COC)o2)Cc2cc(OC)ccc2O1 (stereo not drawn) | 4.4%
CC1(C)CC[C@]2(C(=O)O)CC[C@]3(C)C(=CCC4[C@@]5(C)CC[C@H](O)C(C)(C)C5[C@H](O)C[C@]43C)C2C1 (stereo partly drawn) | -21.9%
COc1cccc(Nc2ncc3nc(-c4cccs4)c(=O)n(C[C@H]4CCCO4)c3n2)c1 | ?
COC1=CC(=O)C(O)=C/C1=C\C=C\c1ccccc1 | ?
CN(C)Cc1ccccc1-c1cncnc1NCc1ccccc1 | 4.9%
COc1ccccc1CNc1ncnc2ccc(-c3c(C)noc3C)cc12 | 14.3%

Some of the entries so far, with each value named:
CNCCC(Oc1ccc(C(F)(F)F)cc1)c1ccccc1 (stereo not drawn)
  EPAC1 agonist: 1.8%&-0.3%&-45.7%
COc1ccccc1CNc1ncnc2ccc(-c3c(C)noc3C)cc12
  EPAC1 agonist: 14.3%
COc1ccccc1-c1cc(NCc2cnc(C)cn2)ncn1
  EPAC1 agonist: -7.6%
CCC1CN(Cc2ccc(COC)o2)Cc2cc(OC)ccc2O1 (stereo not drawn)
  EPAC1 agonist: 4.4%

Next structures
SMILES | EPAC1 agonist
O=C(c1ccco1)N1CCC2(CC1)CN(Cc1cc(C(F)(F)F)cc(C(F)(F)F)c1)C2 | -104.4%[inhibitor]
CC1CN(CCC(=O)NC(c2cccnc2)C(F)(F)F)Cc2cc(Cl)ccc2O1 (stereo not drawn) | 7.5%
COc1cccc(-c2nccc(NCc3ccccc3OC)n2)c1 | ?
CN1CCN(c2ncc3nc(-c4cc(F)cc(F)c4)c(=O)n(C4CC4)c3n2)CC1 | -30.7%[inhibitor]
Cn1cc(-c2nc3cncnc3n(Cc3ccccc3Cl)c2=O)c2ccccc21 | ?
COc1cccc(CNC(=O)c2c(OC)cc(=O)n3c2CCN(C(=O)C2CC=CCC2)CC3)c1 (stereo not drawn) | 3.3%
CCOC(=O)C1(O)Oc2cc(OC)cc(OC)c2C(=O)C1c1ccccc1 (stereo not drawn) | ?
COCCn1c(=O)c(C)nc2cnc(Nc3ccccc3)nc21 | -2.0%
O=C1OC(c2ccc(O)cc2)(c2ccc(O)cc2)c2ccccc21 | ?
O=C(CN1Cc2ccccc2OC(c2ccccc2F)C1)NC(c1ccccn1)C(F)(F)F (stereo not drawn) | -4.1%
OC[C@@H]1O[C@@H](n2cnc3c(N[C@H]4CCC[C@@H]4O)ncnc32)[C@H](O)[C@H]1O | -4.3%
CC[N+](C)(CC)CCC[n+]1c(-c2ccccc2)c2cc(N)ccc2c2ccc(N)cc21 | -5.0%
N[C@H](C(=O)O)[C@H]1C[C@@H]1C(=O)O | -0.8%&-19.0%
COc1ccc(C(=O)N2CCC3(CCCN(c4ccc(-c5ccccc5)cc4)C3)CC2)cc1 | -72.6%[inhibitor]
COC(=O)/C=C/c1cc(O)ccc1O | -13.0%
COc1cccc(Cc2nc3cccnc3n2C2CCN(C(=O)c3n[nH]c4c3CCCC4)CC2)c1 | -13.8%
Cc1cc(N(C)C)cc(C)c1/C=C/c1cc[n+](C)c2ccccc12 | -8.5%
O=C(O)c1ccccc1Nc1cccc(C(F)(F)F)c1 | -58.6%&-72.8%[inhibitor]
CCCCCCCCCCCCOS(=O)(=O)O | -42.7%[inhibitor]
Cc1nc(-c2coc3c(O)c(O)ccc3c2=O)cs1 | -18.1%
CCCCCCCCN1[C@@H](CC(=O)O)c2cc(C(F)(F)F)ccc2S1(=O)=O | -28.5%
COc1cccc(Nc2ncc3nc(-c4cn(C)c5ccccc45)c(=O)n(C[C@H]4CCCO4)c3n2)c1 | 112µM*
CC1OC(n2cc(F)c(=O)[nH]c2=O)C(O)C1O (stereo not drawn) | ?
Cc1cc(C(C)(C)CC(C)(C)C)ccc1OCCOCC[N+](C)(C)Cc1ccccc1 | -61.5%[inhibitor]
COC(=O)c1c(C)c2c(c(C)c1O)OC(=O)c1c(C)c(Cl)c(O)c(Cl)c1O2 | -23.2%&-64.4%

An excerpt of these results, with values ahead of the structure.
EPAC1 agonist | compound
? | COc1cccc(-c2nccc(NCc3ccccc3OC)n2)c1
-30.7%[inhibitor] | CN1CCN(c2ncc3nc(-c4cc(F)cc(F)c4)c(=O)n(C4CC4)c3n2)CC1
? | Cn1cc(-c2nc3cncnc3n(Cc3ccccc3Cl)c2=O)c2ccccc21

(more compounds)
SMILES | EPAC1 agonist
Cn1cccc1C(=O)N1CCC[C@@]2(CCN(Cc3cc(C(F)(F)F)cc(C(F)(F)F)c3)C2)C1 | -122.7%[inhibitor]
C[N+](C)(C)CCCCCC[N+](C)(C)C | -9.3%&2.3%&0.1%&-2.4%
COC(=O)N1CCC2(CCCN(C(=O)Nc3ccccc3)C2)CC1 | 18.0%
O=S1(=O)CCOC[C@H](CC2CCCCC2)N1Cc1ccccc1Br | -25.3%
O=C(O)CCC(=O)C(=O)O | 2.6%
COC(=O)CC[C@H](N)C(=O)O | -22.5%
CC[C@H]1C(=O)[C@@H](Cc2ccccc2)[C@@H]2CCN3C(=O)CCC[C@H]1[C@H]23 | ?
CN(C)C(=O)c1ccc(-c2cncnc2NCCN2CCOCC2)cc1 | 15.7%
O=C1c2ccccc2-n2c1nc1ccccc1c2=O | -37.9%[inhibitor]
O=S(=O)(O)c1ccc(O)cc1 | -4.3%
COCCCNc1ncnc2sc(C(=O)N3CCCCC3)c(C)c12 | 4.0%
COC(=O)c1c(OCc2cccnc2)cc(=O)n2c1CCN(C(=O)c1c3c(nn1C)CCCC3)CC2 | -3.3%
Cc1cnc(CNc2ncncc2-c2ccoc2)cn1 | 9.8%
COCC(=O)N1CCC2(CC1)CN(Cc1nccs1)C2 | 4.6%
